From PubChem BioAssay
HNF4A DNA FP – change in binding of human HNF4 alpha to DNA; activity change, % at 10 µM; 360,000 tested, 0.3% active; AID 1224865; P41235; HNF4a-FITC DNA binding, fluorescence polarization, 1 h; in the data active means activity change above about 30%, passing the limit was not always enough;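 further: controls were the assay level and a saturating level of protein; the project sought stronger binding though the title names inhibitors; some compounds called inactive have numbers as strong as hits; positive values seem to mean higher polarization but the record does not say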
FGF22 binding – FGF22 (human) thermal shift binding; Q9HCT0; recombinant FGF22 thermal shift, SYPRO orange fluorescence; percent of sucrose octasulfate shift, DMSO zero; calls only at 9.99 µM; 340,000 tested, 1.5% active; AID 651658;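 active means melting point raised past a set limit in the mean and every replicate; three in four hits are not shown here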
Target sequence (Q9HCT0 whole entry, looked up): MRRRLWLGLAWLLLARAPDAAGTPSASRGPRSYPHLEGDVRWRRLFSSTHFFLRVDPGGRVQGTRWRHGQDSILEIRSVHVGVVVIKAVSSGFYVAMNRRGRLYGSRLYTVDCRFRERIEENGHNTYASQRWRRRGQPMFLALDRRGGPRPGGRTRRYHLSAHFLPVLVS
Beta2AR agonist – activates human beta-2 adrenergic receptor causing internalization | Am2.2-beta2AR cells, FAP receptor internalization, flow cytometry; reference of the scale not given here | AID 504454 | 340,000 tested, 0.43% active | response, % (test concentration not listed) | P07550;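 active means response above a set limit, near 3 SD of response in nonfluorescent compounds, cut at about 42% in these data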;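 further: stock transfer was 100 nL into about 11 µL; a reference agonist was the positive control; negative values mostly stem from fluorescent compounds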
Target sequence (P07550 whole entry, looked up): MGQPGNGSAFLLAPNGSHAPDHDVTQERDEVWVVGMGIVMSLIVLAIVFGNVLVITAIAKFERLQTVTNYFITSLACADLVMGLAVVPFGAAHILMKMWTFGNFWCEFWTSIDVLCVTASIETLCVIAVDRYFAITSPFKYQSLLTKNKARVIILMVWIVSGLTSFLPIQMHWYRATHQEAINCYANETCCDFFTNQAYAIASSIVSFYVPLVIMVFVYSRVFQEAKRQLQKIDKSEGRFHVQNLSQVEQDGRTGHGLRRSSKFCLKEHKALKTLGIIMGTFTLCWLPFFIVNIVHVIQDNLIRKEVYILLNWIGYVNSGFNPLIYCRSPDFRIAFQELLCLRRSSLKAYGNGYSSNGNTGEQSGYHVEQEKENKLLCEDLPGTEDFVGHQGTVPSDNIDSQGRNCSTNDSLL
ALR inh – inhibitors of human sulfhydryl oxidase ALR. purified ALR, DTT oxidation, H2O2 HRP-luminol luminescence. inhibition, % (concentration not given with the values). AID 485317. 290,000 tested, 3.8% active. P55789;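 active means mean and each replicate at 75% or more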;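 further: stock transfer was 7.5 nL into about 7.5 µL; 0% = neutral wells and 100% = wells with inactivated enzyme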
Target sequence (P55789 whole entry, looked up): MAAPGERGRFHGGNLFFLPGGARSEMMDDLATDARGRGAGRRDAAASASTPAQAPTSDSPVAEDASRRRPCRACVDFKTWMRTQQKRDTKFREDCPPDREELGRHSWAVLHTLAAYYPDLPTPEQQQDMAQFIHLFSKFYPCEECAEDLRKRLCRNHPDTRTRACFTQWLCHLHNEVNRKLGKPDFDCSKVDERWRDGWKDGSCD
LANA-H2B inh – blocks KSHV LANA binding to histone H2A/H2B; cell-free LANA-H2A/H2B peptide, fluorescence polarization; 320,000 tested, 0.6% active; inhibition, % (no concentration beside the values); in the data active means inhibition mostly above about 10%, no sharp cut-off; inactive means mostly below about 6.7%;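 further: stock transfer was 7.5 nL into about 10 µL; 0% = median of vehicle wells and 100% = median of positive control wells; one replicate is shown; the record names a cut of 25% in any replicate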
E coli growth – inhibitors of Escherichia coli growth; OD600, 23 h; hits give low values; OD600 absorbance (concentration not given with the values); 330,000 tested, 0.21% active; AID 1053175;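 active means OD600 absorbance below the run mean of sample wells minus 3.6 SD, in any replicate, cut at about 0.56 in these data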;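 further: stock transfer was 300 nL into about 60 µL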
UCH37 inh – blocks the human deubiquitinase UCH37. Q9Y5K5. purified proteasome/UCH37, Ub-AMC cleavage fluorescence. inhibition, % (concentration not given with the values). 330,000 tested, 0.33% active. AID 588478;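 active means mean of two replicates above 20%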;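 further: 0% = compound-free wells with enzyme and 100% = wells lacking proteasome; stock transfer was 100 nL into about 20 µL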
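Material: Human UCH37 enzyme supplied as purified proteasome complex | Schedule: 30 min preincubation with enzyme, 25 min cleavage at room temperature | Detection: AMC fluorescence 355/460 nm | Measure: % inhibition of Ub-AMC cleavage fluorescence | Controls: Wells without proteasome as full block, compound-free enzyme plus substrate as uninhibited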
* = called active by the depositor; i = inactive; . = not tested or not shown. The list is partial, so the mix of outcomes need not match the whole.

SMILES	HNF4A DNA FP	FGF22 binding	Beta2AR agonist	ALR inh	LANA-H2B inh	E coli growth	UCH37 inh
CCOc1ccc(NC(=O)C2CCCN(c3c(CC)c(C)nc4ncnn34)C2)cc1 (centres undefined)	-0.4	i	24	10	4.3	0.68	2.9
CCOC(=O)C1=C(C)NC(=O)NC1c1ccc(OC(=O)c2ccco2)c(OC)c1 (centres undefined)	0.7	i	0	0	2.4	0.72	4.7
O=C(/C=C/c1ccc(Cl)c([N+](=O)[O-])c1)Nc1cccnc1	2.5	.	-1	.	-1.3	0.67	2.7
COc1ccc(-c2nc(CC(=O)O)cs2)cc1	1.6	.	7	.	.	0.77	-1.3
c1ccc2c(c1)oc1c(N3CCOCC3)ncnc12	2.2	.	-10	-7	7.7	0.69	4.3
CCCCOc1ccc(Cc2c(O)nc(SC)[nH]c2=O)cc1	2.4	i	-4	.	1.6	0.65	4.0
Cn1c(SCC(=O)c2ccc(O)c(O)c2)nnc1-c1cccs1	-12	i	-7	99*	-1.8	0.64	7.3
CCS(=O)(=O)N1CCC(C(=O)NCCc2ccc(OC)c(OC)c2)CC1	0.0	i	-8	1	-4.2	0.68	-1.2
C(=N\c1nc2ccccc2n1CCN1CCCCC1)/c1ccc2c(c1)OCO2	1.2	.	5	-4	-0.1	.	.
O=C(Nc1cc(Cl)ccc1Oc1ccccc1)c1cnccn1	-2.0	.	4	.	2.8	0.71	5.4
CC(C)NC(=O)N1CC(c2ccccc2)C(c2ccc(Cl)cc2)=N1 (centres undefined)	-0.7	i	27	.	-1.2	0.68	-11
O=C(CCNC(=O)N1CCn2c1nc1ccccc12)NCc1ccccc1	2.8	i	-2	.	-1.1	0.72	2.2
COc1cccc(NC(=O)COc2cc(O)c3c(c2)OC(C)(C)CC3=O)c1	-2.0	i	-6	5	-3.4	0.68	0.1
CCn1nc(CC(=O)Nc2nnc(CC(=O)N3CCCC3)s2)c2ccccc2c1=O	4.5	.	-2	-4	0.3	0.7	0.5
COc1ccc(N=C2SC(CC(=O)Nc3ccc(OC)cc3OC)C(=O)N2C)cc1 (centres undefined)	-4.5	.	3	-4	1.9	0.71	0.7
O=C(OCc1cncs1)c1ccccc1Cl	1.1	i	9	-12	3.6	0.66	-3.2
CCC/C(O)=C1\C(=O)CC(c2ccccc2)CC1=NC(C)C(=O)O (centres undefined)	1.2	i	0	-1	-0.7	0.64	2.0
O=C(NCc1cccnc1)C1CCN(S(=O)(=O)N2CCC3(CC2)OCCO3)CC1	-1.0	i	-5	0	2.6	0.7	1.6
O=C(CCN1CCCCC1)Nn1c(=S)[nH]c2ccccc2c1=O	4.3	.	-2	37	-2.2	0.68	2.0
COc1ccc(CCNC(=O)c2ccc(CS(=O)(=O)c3ccc(Cl)cc3)o2)cc1OC	0.5	.	11	-16	27*	0.66	5.4
Cc1ccc(NC(=O)c2ccc(Cl)c(S(=O)(=O)N3CCCC3)c2)nc1	-2.5	.	-6	.	-0.3	0.69	3.0
COc1cc(/C=N\NC(=O)c2ccc(C)nc2)ccc1OC(=O)c1cccc(F)c1	-0.3	i	-2	-3	-0.6	.	.
O=C(CSc1nnc(-c2ccc(F)cc2)o1)N1CCCC1	0.2	i	-1	.	-0.6	0.68	0.9
Cc1ccc(C(=O)OCC(=O)Nc2cccc(S(=O)(=O)N3CCCCC3)c2)o1	-1.2	i	4	-3	1.6	0.69	2.7
O=C(Nc1nc2c(Br)cc(Br)cc2c(=O)s1)c1ccco1	0.1	i	-9	5	-0.5	.	.
CCc1ccc(-c2cc(C)no2)cc1S(=O)(=O)N1CCN(c2ccccc2F)CC1	-2.0	i	-2	-1	-2.2	0.69	2.5
COc1ccccc1CNC(=O)COC(=O)c1ncc(Cl)c(Cl)c1Cl	-0.1	i	-2	-2	-2.5	0.68	1.3
COCc1cc(=O)n2[nH]c(-c3ccsc3-n3c(C)ccc3C)cc2n1	4.2	.	7	5	3.6	0.73	-0.4
CCCCOc1ccc(/C=C2/Sc3ccccc3C2=O)cc1	13	.	3	-9	-17	0.72	7.3
COc1ccc(NC(=O)CCNC(C)=O)cc1NS(=O)(=O)c1ccc(F)cc1	2.6	.	1	.	8.2	0.74	4.9
COc1c(Cl)cc(Cl)cc1/C=N/n1cnnc1	-0.9	.	1	-11	-0.6	.	.
C[C@H]1COC(=O)[C@H](CC(=O)OC(C)(C)C)C/C=C\C[C@@H](CC(=O)N[C@@H](CO)Cc2ccccc2)C(=O)N1	3.3	i	1	5	3.5	.	3.5
O=C(CN(C(=O)CSc1nc2ccccc2o1)c1cccc(F)c1)NC1CCCCC1	-1.8	.	-15	3	-0.7	0.75	2.3
COc1ccc(C2CC(c3ccccc3)=NN2C(=O)CCC(=O)O)cc1 (centres undefined)	-1.1	i	8	-2	3.8	.	.
Cn1cc(C(=O)N2CCN(C(=O)c3ccco3)CC2)c2c3ccccc3n(C)c2c1=O	1.8	.	-16	-1	0.2	0.66	-119
CCN1CCN(S(=O)(=O)c2ccc(Cl)c(C(=O)NCCOc3ccc(C)cc3)c2)CC1	-1.1	i	-10	.	.	0.65	-0.4
Cc1ccccc1Cn1ccc(NC(=O)c2nn3cccnc3c2Cl)n1	0.5	i	-6	-1	-3.6	0.66	-0.3
O=C(Nc1ccc2c(c1)OCO2)c1c(F)c(F)c(F)c(F)c1F	-0.4	.	2	-16	-2.7	0.69	4.4
CCOc1ccc(C(=O)NCC(=O)N2CCC(C)CC2)cc1OCC	0.8	i	-1	-11	-1.0	0.68	1.7
Cc1ccc(S(=O)(=O)N(CC(=O)N/N=C/c2cccc(Cl)c2)c2cccc3cccnc23)cc1	-1.1	.	1	-9	1.5	.	.

Molecules from the list above that have a thiophene ring, fused or not:
SMILES	HNF4A DNA FP	FGF22 binding	Beta2AR agonist	ALR inh	LANA-H2B inh	E coli growth	UCH37 inh
Cn1c(SCC(=O)c2ccc(O)c(O)c2)nnc1-c1cccs1	-12	i	-7	99*	-1.8	0.64	7.3
COCc1cc(=O)n2[nH]c(-c3ccsc3-n3c(C)ccc3C)cc2n1	4.2	.	7	5	3.6	0.73	-0.4

(further entries)
SMILES	HNF4A DNA FP	FGF22 binding	Beta2AR agonist	ALR inh	LANA-H2B inh	E coli growth	UCH37 inh
CC(C)Oc1ccc(N2CC(C(=O)NC3=NCCS3)CC2=O)cc1 (centres undefined)	-0.1	.	9	-3	-0.6	0.7	4.2
COCCn1c(SCC(=O)c2ccc(Cl)cc2)nnc1C(C)C	2.1	.	-1	91*	-9.1	0.72	1.0
Fc1ccc(Oc2ccc3nnc(C(F)(F)F)n3n2)cc1	-1.4	i	0	-5	4.9	0.71	1.3
O=S(=O)(NCc1ccccc1)c1ccc(Cl)cc1	1.9	.	1	-13	0.7	0.71	0.5
Cc1cc(C(=O)CSc2nncn2C)c(C)n1-c1ccccc1	-0.2	i	4	-7	-0.1	0.69	1.8
C1=CC2CC1CC2CN1CCN(c2ccccc2)CC1 (centres undefined)	0.5	i	9	30	-0.3	0.65	-3.0
Cc1ccnc(NC(=O)c2ccc(S(=O)(=O)N3CCC(C)CC3)cc2)c1	-2.2	i	10	-2	-1.4	0.69	4.2
CCCN(C(=O)CSCc1c(C)noc1C)c1c(N)n(Cc2ccccc2)c(=O)[nH]c1=O	0.3	i	1	-4	-1.3	0.67	1.5
Cc1c(C(=O)NCc2ccc3c(c2)OCO3)oc2ccc(S(=O)(=O)N3CCCCC3)cc12	3.2	.	11	-5	-10	0.72	1.8
Cc1ccccc1N1CCN(S(=O)(=O)N(C)C)CC1	-0.2	i	3	-5	-2.5	0.71	2.1
CCOC(=O)Cn1nc(NC(=O)c2ccc3c(c2)OCO3)cc1C	4.0	i	-2	-1	-1.1	0.67	3.4
O=C(COc1ccccc1)NCc1ccco1	4.5	i	3	.	.	0.62	0.5
Cc1ccc(CCNC(=O)C2CCCN(S(=O)(=O)c3cccc4nsnc34)C2)cc1 (centres undefined)	-0.8	.	0	-2	-3.4	0.74	1.5
COc1ccc(OCC#CCN2CC(C)OC(C)C2)cc1 (centres undefined)	0.8	.	-13	.	4.3	0.68	2.9
COc1cc(C2NC(=O)NC(C)=C2C(=O)OC2CCCC(C)C2)ccc1O (centres undefined)	4.3	.	-22	25	0.7	0.67	2.4
COCCCNC(=O)c1ccc(Cn2c(=O)c3ccccc3n(Cc3cc(C)ccc3C)c2=O)cc1	1.2	.	-1	-6	5.2	0.75	0.0
CC(=O)Nc1ccc(NC(=O)C2CC(=O)N(c3cccc(C)c3C)C2)cc1 (centres undefined)	-0.1	.	-2	-7	-1.6	0.65	-0.2
S=C(c1ccc(N2CCCC2)c(Br)c1)N1CCCCC1	0.2	i	4	1	0.7	0.71	5.5
CCOc1ccccc1-c1nc(-c2ccncc2)no1	-1.8	.	-13	-1	-1.6	0.72	-0.8
COc1ccccc1NC(=O)Cn1cnc2sc(C(=O)Nc3ccc(OC)c(OC)c3)c(C)c2c1=O	-0.9	i	9	-2	-5.2	0.69	-0.2
C/C(CC(=O)c1ccccc1)=N\NC(=O)CC#N	2.2	i	2	12	3.4	.	.
O=c1c(/C=N/N2CCOCC2)c(C(F)(F)F)[nH]n1-c1ccccc1	-4.1	i	6	23	0.9	.	.
Cc1nnc(N/N=C/c2ccccc2O)n1N	-0.6	i	4	8	-2.1	.	.
CCOC(=O)c1c(C)[nH]c(C)c1C(=O)CSc1nnc(-c2ccc(OC(F)F)cc2)o1	-3.7	.	0	1	-4.3	0.69	0.8
COc1c(S(=O)(=O)NCCCN2CCOCC2)ccc(Cl)c1Cl	-3.1	i	2	0	-0.5	0.68	3.9
COC(=O)/C=C/C(=O)N1CCN(c2ccccc2C)CC1	0.8	i	3	98*	5.5	0.69	4.1
CCN1CCN(c2nc3ccccc3n3cnnc23)CC1	-0.1	i	0	-8	0.4	0.67	3.4
O=C(NCc1ccc(Cl)cc1)C1CCN(S(=O)(=O)c2ccc(F)cc2)CC1	-0.8	i	2	-16	-2.8	0.7	-3.2
COC(=O)C(Cc1ccccc1)NCC(=O)Nc1cccc(Cl)c1C (centres undefined)	1.1	i	-3	-3	0.3	0.67	2.1
O=C(/C=C/c1ccc(Cl)cc1Cl)NCCN1CCOCC1	2.6	.	0	6	-2.3	.	0.3
Cc1ccc(S(=O)(=O)CCC(=O)Nc2ccc(F)cc2)cc1	2.3	i	7	-7	-5.3	0.67	1.5
OCC1(CC2CCCCO2)CCN(Cc2nc3ccccc3[nH]2)CC1 (centres undefined)	9.7	i	1	-8	4.9	0.68	-18
C=CCSc1nc2sc3c(c2c(=O)n1-c1ccc(C)cc1)CCN(C)C3	5.5	i	0	-3	-1.8	0.7	-33
CC(=O)c1ccc2c3c(cccc13)C(=O)N(CCc1ccccc1)C2=O	-7.5	i	-2	-9	-2.0	0.65	1.2
O=C(CNC(=O)c1cccc(Cl)c1)NCC(c1cccs1)N1CCOCC1 (centres undefined)	2.9	i	-2	-21	8.0	0.65	2.1
COc1ccccc1CCNC(=O)CCn1c(=O)oc2ccccc21	0.6	i	-4	-12	-2.4	0.71	2.3
O=c1c2ccccc2nc(CSc2nnnn2-c2ccccc2)n1-c1ccccc1	-24	.	10	0	0.8	.	.
CCOc1ccc(N2CC(C(=O)Nc3nnc(C4CCCCC4)s3)CC2=O)cc1 (centres undefined)	6.2	i	-2	-1	4.8	0.68	-1.7
O=C1CN(C(=O)/C=C/c2cc(Br)ccc2F)CCN1	-2.1	i	-12	-3	-2.7	0.69	5.5
O=C1Nc2ccccc2Nc2ncccc21	-0.3	.	3	.	15*	0.74	0.4
Cn1cc([N+](=O)[O-])c(C(=O)Nc2nc(-c3ccc(Cl)cc3)cs2)n1	-3.8	.	33	-2	0.2	0.76	3.0
COc1ccc(CNC(=O)c2ccc(CS(=O)(=O)Cc3ccccc3F)o2)cc1	2.1	i	-8	.	-3.5	0.66	3.7
CN(Cc1cnccn1)Cc1c(C(=O)N2CCc3ccccc3C2)nc2ccc(Cl)cn12	-0.8	i	-16	-9	0.9	0.68	-0.8
